2A StopGo: FMDV 2A StopGo reporter, luciferase signal; human cells with a luciferase reporter of 2A StopGo recoding; control for the full effect not named in the record; actives 1.2% (n = 410,000); Potency, µM (titrated, usually from 57.9 µM), for inactives: at the highest dose signal change, negative = less light; AID 1159524; active = well fitted falling curve with a large enough effect; inconclusive = small, poorly fitted or top-dose-only effect; inactive = no such curve, though single readings can be large or run the other way; tested in HEK293T cells; further: on the % scale 0 is the no-effect control and ±100 the full control effect; nearly all actives have a fitted effect of over 45% in size; luciferase light after 4 h
NS1 inh: inhibitors of influenza NS1 protein function. Potency, µM (top dose mostly 46.1 µM), for the others: at the highest dose activity, positive = more growth. AID 2326. actives 0.4% (n = 270,000). S. cerevisiae slowed by influenza A NS1, growth recovery by OD600; active means well fitted rising curve with a large enough effect; inconclusive means small, poorly fitted or top-dose-only effect; inactive means no such curve, though single readings can be large or run the other way; further: nearly all actives have a fitted effect of over 50% in size
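Compounds were scored for reversing the slow growth caused by influenza A NS1 in S. cerevisiae, measured by optical density at 600 nm. Assay medium contained 2% galactose at pH 6.0; NS1-free yeast of the same strain were the positive control.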
Marburg entry inh: inhibitors of Marburg virus binding or cell entry; Marburg virus pseudotyped entry inhibition, cell reporter; control for the full effect not named in the record; about a third of the inactives were read at about 46 µM; Potency, µM (top dose mostly 37.8 µM), without a hit: at the top dose activity change, negative = inhibition, most hits filed as inhibitors; actives 1.8% (n = 300,000); AID 540276; active = well fitted inhibition curve with a large enough effect; inconclusive = small, poorly fitted or top-dose-only effect, or effect the other way; inactive = flat fitted curve, though single readings scatter; tested in HEK293 cells; about a fifth of its hits are not listed in these tables; further: on the % scale 0 is the no-effect control and ±100 the full control effect; luciferase read-out
LASV entry inh: Lassa virus entry inhibition; Lassa virus pseudotype entry inhibition, cell reporter; control for the full effect not named in the record; Potency, µM (series often up to 37.9 µM), for inactives: at the top dose activity change, negative = inhibition, usual class: inhibitors; actives 1.2% (n = 300,000); active means well fitted inhibition curve with a large enough effect; inconclusive means small, poorly fitted or top-dose-only effect, or effect the other way; inactive means flat fitted curve, though single readings scatter; tested in HEK293 cells; further: on the % scale 0 is the no-effect control and ±100 the full control effect; nearly all actives have a fitted effect of over 50% in size; luciferase read-out
Cruzain noTriton: cruzain (T. cruzi) inhibition without detergent. purified cruzain, Z-FR-AMC fluorescence, no detergent. Potency, µM, inactives show max response, negative = inhibition, hits mostly inhibitors. actives 2.3% (n = 200,000);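 further: plate controls were enzyme without inhibitor for no effect and buffer without enzyme for full effect; nearly all actives have a fitted effect of over 40% in size; top concentration of the series not given in the record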
Target sequence (P25779 123-467 limits assumed): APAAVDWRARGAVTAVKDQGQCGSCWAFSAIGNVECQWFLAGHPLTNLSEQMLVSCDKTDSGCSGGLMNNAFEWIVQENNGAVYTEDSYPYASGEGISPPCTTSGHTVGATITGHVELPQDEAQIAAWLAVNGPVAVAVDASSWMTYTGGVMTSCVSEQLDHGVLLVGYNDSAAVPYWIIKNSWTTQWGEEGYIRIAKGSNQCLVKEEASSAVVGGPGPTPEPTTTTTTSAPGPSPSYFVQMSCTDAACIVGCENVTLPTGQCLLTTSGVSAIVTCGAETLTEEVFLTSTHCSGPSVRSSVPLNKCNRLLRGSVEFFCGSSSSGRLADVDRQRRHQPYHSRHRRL
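Detergent-free condition (0.00005% Triton X-100) in acetate buffer pH 5.5 with DTT. 1.5 nM enzyme and compound were pre-mixed 15 min, then 2 uM Z-FR-AMC substrate added; reaction progress from fluorescence change between first and third reads (60 s).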
Cruzain inh Det: blocks cruzain activity in presence of Triton detergent. P25779. purified cruzain, Z-FR-AMC fluorescence, 0.01% Triton. Potency, µM, for inactives: max response, negative = inhibition, hits mostly inhibitors. actives 0.43% (n = 200,000);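 further: plate controls were neutral wells for no effect and buffer without enzyme for full effect; nearly all actives have a fitted effect of over 40% in size; top concentration of the series not given in the record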
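Z-FR-AMC hydrolysis (2 uM substrate) by cruzain (1.5 nM) monitored kinetically at ex 360/em 450 nm after 15 min room-temperature compound exposure; 0.01% Triton X-100, pH 5.5, 5 mM DTT.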
SARS PLP yeast: inhibitors of SARS-CoV papain-like protease in yeast; actives 0.19% (n = 330,000); AID 485353; S. cerevisiae expressing SARS-CoV PLpro, growth rescue; control for the full effect not named in the record; Potency, µM (highest dose often 32.9 µM), without a hit: top-dose activity, positive = growth rescue; active means well fitted rising curve with a large enough effect; inconclusive means small, poorly fitted or top-dose-only effect; inactive means no such curve, though single readings can be large or run the other way; further: 0% is about no effect; nearly all actives have a fitted effect of over 55% in size; growth read by luminescence after 48 h
RE007 growth inh: less growth of the S. pombe RE007 Vpr strain; AID 651644; S. pombe RE007 Vpr strain, BacTiter-Glo ATP luminescence, 24 h; control for the full effect not named in the record; Potency, µM (top dose mostly 92.2 µM), inactives show at the top dose activity change, negative = less growth; actives 0.21% (n = 360,000); active = well fitted falling curve with a large enough effect; inconclusive = small, poorly fitted or top-dose-only effect; inactive = no such curve, though single readings can be large or run the other way;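 further: on the % scale 0 is the no-effect control and ±100 the full control effect; nearly all actives have a fitted effect of over 50% in size; the assay follows cell death caused by Vpr and the record does not say whether a fall means rescue or toxicity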
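Fission yeast RE007 carrying one integrated HIV-1 vpr copy, seeded at OD 0.01 in PMG+AL medium with 23 nL pinned compound. Grown 24 h at 30 degrees; viability read by BacTiter-Glo luminescence after 5 min.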
Starred values were filed as active, the others as inactive; ? = inconclusive; . = no result given; & = joins results of further samples; [ ] = another dose, or the depositor's remark. Unless noted, the call rests on the fitted dose curve; in most records, active means well fitted curve in the direction sought with a large enough effect; inconclusive means small, poorly fitted or top-dose-only effect, or another doubt; inactive means no such curve, though single readings can be large; an effect the other way counts as inactive or inconclusive. Potency means the concentration at half of the fitted maximal effect. No enrichment for hits; any-hit rate near 4.5%.

cpd | Structure | 2A StopGo | NS1 inh | Marburg entry inh | LASV entry inh | Cruzain noTriton | Cruzain inh Det | SARS PLP yeast | RE007 growth inh
1 | N#Cc1ccccc1Cn1cc(C(=O)c2ccccc2F)c2ccccc21 | -22% | -5% | -10% | ? | 3% | -6.1% | -3% | 9%
2 | CCOc1ncccc1C(=O)OCC(=O)Nc1ccc(Cl)cn1 | 0% | . | 13%[46.1 µM] | 8%[46.1 µM] | . | . | -35% | 3%
3 | CCN=C1S/C(=C\c2cc(Br)ccc2OCC(=O)OCC)C(=O)N1CC | -7% | -10% | -4% | -11% | ? | -12% | -16% | 9%
4 | C=CCC1(CC=C)CCCN1C(=O)c1cc(COc2cccc(C(F)(F)F)c2)on1 | -24% | 2% | 10µM* | ? | . | . | 0% | 0%
5 | O=C(N/C(=C\c1cccnc1)C(=O)N1CCOCC1)c1ccco1 | -14% | . | 28%[46.1 µM] | 10% | . | . | 2% | -2%
6 | C=C(C)Cn1c(NCCC)nc2c1c(=O)n(C)c(=O)n2C | -22% | -10% | . | . | . | . | -2% | 7%
7 | Cc1cc(C)c(-c2cc(NC(=O)COC(=O)c3ccc(C#N)cc3)n(-c3ccccc3)n2)cc1C | -16% | 24% | ? | ? | 16µM* | -6.0% | -5% | -13%
8 | COC(=O)c1c(C)nn(-c2ccccc2)c1N | 0% | ? | ? | 3% | -6% | 0.4% | 11% | -12%
9 | CCOC(=O)c1c(C)c(/C=N/Nc2ccccc2)n(C)c1C | 23% | -1% | 14%[46.1 µM] | -3% | . | . | 0% | 21%
10 | CC(=O)Nc1ccc(NC(=O)C(C)OC(=O)CSc2ccc(Br)cc2C)cc1 (configuration not stated) | -22% | 8% | -2%[46.1 µM] | 6%[46.1 µM] | . | . | -2% | 10%
11 | CSCCC(NS(=O)(=O)c1ccc2c(c1)oc(=O)n2C)C(=O)Nc1ccc(F)c(Cl)c1 (configuration not stated) | 37%[activator] | . | . | -25%[46.1 µM] | ? | 0.2% | . | .
12 | CC(C)CC(NC(=O)c1cccs1)c1nnc(SCc2ccc(Cl)c(Cl)c2)n1C (configuration not stated) | ? | 10% | ? | -13% | 0% | -3.4% | -19% | 12%
13 | c1ccc(C2=NN(c3ccccc3)CC2)cc1 | 57%[activator] | -5% | . | . | . | . | -1% | -6%
14 | O=C(COc1ccc2ccccc2c1)NCCn1ccc2ccccc21 | 0% | -14% | . | . | 3% | -7.8% | -17% | 6%
15 | COc1ccc(S(=O)(=O)N2CCN(C(=O)c3cc(C4CC4)nn3-c3ccccc3)CC2)cc1OC | ? | . | -27% | -5% | . | . | -3% | -8%
16 | Cc1nccn1S(=O)(=O)c1ccc(Br)cc1Br | 23% | -7% | 12% | 12% | -2% | 2.7% | -9% | 32%
17 | CC1=C(C(=O)OCC2CCCO2)C(c2ccc(C)o2)C2=C(CC(c3ccc(F)cc3)CC2=O)N1 (configuration not stated) | 5% | -15% | 10µM* | -25% | ? | -3.8% | -4% | 1%
18 | CCN(CC)c1ccc(-c2sc(Nc3ccccc3)n[n+]2-c2ccc(F)cc2)cc1 | ? | 1% | . | . | . | . | 5% | -7%
19 | Oc1ccc2ccccc2c1C1Nc2cccc3cccc(c23)N1 | ? | -7% | 5% | 14% | ? | -7.4% | -40% | 23%
20 | CCc1cccc(-n2c(C)nc3c(cnn3-c3ccc(C)c(C)c3)c2=O)c1 | -6% | . | ? | -14%[46.1 µM] | -7% | -7.7% | . | .
21 | COc1ccc(-c2[nH]nc3c2C(c2ccncc2)C(C#N)=C(N)O3)cc1 (configuration not stated) | -24% | -4% | -26% | 6% | -9% | -2.5% | 4% | 0%
22 | Cn1c(N2CCCCC2)cc(=O)n(C)c1=O | -5% | 4% | 19% | 16% | -5% | 3.2% | -6% | 7%
23 | Nc1nnc(-c2cn(-c3ccccc3)nc2-c2ccccc2)o1 | 13% | -22% | 4% | 9% | 9% | -4.5% | 1% | 8%
24 | CSc1nc(NC(C)(C)C)nc(N2CCOCC2)n1 | -19% | -5% | -14% | 0% | -16% | -2.0% | 10% | -7%
25 | CC(C)(Cc1ccc(O)cc1)NC(=O)CC(=O)N/N=C/c1ccc(Cl)cc1 | -11% | 5% | . | . | . | . | 5% | -5%

One compound at a time, from the list above:
COC(=O)c1c(C)nn(-c2ccccc2)c1N is listed with 2A StopGo = 0%; NS1 inh = ?; Marburg entry inh = ?; LASV entry inh = 3%; Cruzain noTriton = -6%; Cruzain inh Det = 0.4%; SARS PLP yeast = 11%; RE007 growth inh = -12%
CSc1nc(NC(C)(C)C)nc(N2CCOCC2)n1 is listed with 2A StopGo = -19%; NS1 inh = -5%; Marburg entry inh = -14%; LASV entry inh = 0%; Cruzain noTriton = -16%; Cruzain inh Det = -2.0%; SARS PLP yeast = 10%; RE007 growth inh = -7%

Some of these compounds in order of length of the SMILES, lowest first:
cpd | Structure | 2A StopGo | NS1 inh | Marburg entry inh | LASV entry inh | Cruzain noTriton | Cruzain inh Det | SARS PLP yeast | RE007 growth inh
22 | Cn1c(N2CCCCC2)cc(=O)n(C)c1=O | -5% | 4% | 19% | 16% | -5% | 3.2% | -6% | 7%
5 | O=C(N/C(=C\c1cccnc1)C(=O)N1CCOCC1)c1ccco1 | -14% | . | 28%[46.1 µM] | 10% | . | . | 2% | -2%
12 | CC(C)CC(NC(=O)c1cccs1)c1nnc(SCc2ccc(Cl)c(Cl)c2)n1C (configuration not stated) | ? | 10% | ? | -13% | 0% | -3.4% | -19% | 12%

Returning to the listing with the two entries that preceded the break.
cpd | Structure | 2A StopGo | NS1 inh | Marburg entry inh | LASV entry inh | Cruzain noTriton | Cruzain inh Det | SARS PLP yeast | RE007 growth inh
24 | CSc1nc(NC(C)(C)C)nc(N2CCOCC2)n1 | -19% | -5% | -14% | 0% | -16% | -2.0% | 10% | -7%
25 | CC(C)(Cc1ccc(O)cc1)NC(=O)CC(=O)N/N=C/c1ccc(Cl)cc1 | -11% | 5% | . | . | . | . | 5% | -5%
26 | COc1ccc(CCNC(=O)COc2ccc(S(=O)(=O)N3CCOCC3)cc2C)cc1 | ? | -14% | ? | ? | . | . | -1% | -8%
27 | Cc1cc(C(=O)CS(=O)(=O)c2ccccc2)cc(C)c1O | 16% | 11% | 27%[46.1 µM] | 15%[46.1 µM] | . | . | 0% | -9%
28 | O=C(CN(c1cccc([N+](=O)[O-])c1)S(=O)(=O)c1ccccc1)N1CCCCC1 | 51%[activator] | 2% | -2%[46.1 µM] | -2% | . | . | 1% | 23%
29 | O=C(Nc1c(F)cc(F)cc1Br)C1CCCO1 (configuration not stated) | 17% | 0% | 19% | 2% | 3% | 6.9% | 5% | 15%
30 | O=S(=O)(NCCc1ccccc1)c1ccccc1 | 92%[activator] | -14% | -12%&-12% | -9% | 10% | -0.7% | 15% | -15%
31 | c1c(C2CCCCC2)n[nH]c1CN1CCCCC1 | -6% | -6% | ? | 29% | 2% | -2.7% | 8% | 17%
32 | CCC(=O)N1c2ccccc2NC2=C(C(=O)CCC2)C1c1cccnc1 (configuration not stated) | 6% | -1% | 27%[46.1 µM] | ? | -10% | -1.9% | -2% | -2%
33 | COCCNC(=O)CCc1c(C)nc2nc(-c3cc(OC)cc(OC)c3)nn2c1C | -14% | . | ? | 2%[46.1 µM] | . | . | 0% | 4%

An excerpt of these results, with each value named.
27	Cc1cc(C(=O)CS(=O)(=O)c2ccccc2)cc(C)c1O
  2A StopGo: 16%
  NS1 inh: 11%
  Marburg entry inh: 27%[46.1 µM]
  LASV entry inh: 15%[46.1 µM]
  Cruzain noTriton: .
  Cruzain inh Det: .
  SARS PLP yeast: 0%
  RE007 growth inh: -9%
28	O=C(CN(c1cccc([N+](=O)[O-])c1)S(=O)(=O)c1ccccc1)N1CCCCC1
  2A StopGo: 51%[activator]
  NS1 inh: 2%
  Marburg entry inh: -2%[46.1 µM]
  LASV entry inh: -2%
  Cruzain noTriton: .
  Cruzain inh Det: .
  SARS PLP yeast: 1%
  RE007 growth inh: 23%
29	O=C(Nc1c(F)cc(F)cc1Br)C1CCCO1 (configuration not stated)
  2A StopGo: 17%
  NS1 inh: 0%
  Marburg entry inh: 19%
  LASV entry inh: 2%
  Cruzain noTriton: 3%
  Cruzain inh Det: 6.9%
  SARS PLP yeast: 5%
  RE007 growth inh: 15%

High-throughput results: PubChem, National Center for Advancing Translational Sciences (NCATS)
